Screening data deposited in PubChem BioAssay by Fisher Drug Discovery Resource Center.
NPYLR7 agonist = activates Aedes aegypti NPYLR7 receptor; HEK293T NPYLR7/Galpha15, GCaMP6s calcium fluorescence; activation, % at 10 µM; 270,000 tested, 0.15% active; AID 1259423; in the data active means activation above about 40%;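 further: 0% = vehicle and 100% = reference agonist at the receptor; some compounds past the cut are filed as inactive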
NPYLR7 agonist max-min = recorded beside NPYLR7 agonist, whose call it bears; activation, %; measured here: Max-Min RFU normalised activation; some inactives read as strong as hits;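 span of the calcium signal over five minutes; 0% = vehicle and 100% = native peptide agonist; compound fluorescence can raise it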
The depositor's hits bear a star; & = joins results of further samples. Only part of the results is shown; count on the stated rates, not on these rows.

Compound | NPYLR7 agonist | NPYLR7 agonist max-min
CC(c1nccs1)N(C)C(=O)c1ccc(-n2cnnc2)cc1 (stereo not given) | 14.3&4.3 | 6.6&0.1
O=C(NC1(c2cccc(F)c2)CCOCC1)C1CC1c1ccccc1 (stereo not given) | -20.7 | -18.5
NC(=NCCOCC1CCOC1)Nc1ccccc1 (stereo not given) | 1.8 | 0.4
COc1ccc(C(=O)c2c(N)c(C(=O)Nc3cc(C)ccc3C)c3ccccn23)cc1 | 0.2 | -1.8
COC(=O)CC(=O)N1CCc2c([nH]c3ccc(OC)cc23)C1c1ccc(OCc2ccccc2)cc1 (stereo not given) | 2.3 | 7.2
COCCCN(CC(=O)N(CCc1ccc(OC)c(OC)c1)Cc1sccc1C)S(=O)(=O)c1cccc(C(F)(F)F)c1 | -2.0 | 7.6
COc1ccc(S(=O)(=O)N2CCSC2c2cc(Br)ccc2OC)cc1 (stereo not given) | 4.8 | -0.8
Cc1nn(C(=O)C2CC2c2ccc(C(C)(C)C)cc2)c(C)c1Cl (stereo not given) | 7.4 | 6.6
CCCNc1nc2ccccn2c(=O)c1C=C1SC(=S)N(Cc2ccco2)C1=O | -2.8 | -2.0
CCN(C1CCN(C(C)c2cccc(C)c2)CC1)S(C)(=O)=O (stereo not given) | 2.9 | 4.8
CCCN(C)c1cc(-c2ccccc2)nc(SCc2ccc(C(=O)N(C)Cc3ccccc3)cc2)n1 | 8.6 | -0.3
Cc1cc(Cl)cc2c3c([nH]c12)CCC(NC(=O)c1cccc(C#N)c1)C3 (stereo not given) | 11.4 | 0.9
COCCNC(=O)C(NC(=O)c1ccccc1)C1CCN(C(=O)Cc2ccccc2)CC1 (stereo not given) | 5.1 | 2.2
Cc1noc(CNC(=O)C2CC(=O)N(CC(F)(F)F)C2)n1 (stereo not given) | 2.4 | 2.7
CCCc1ccc(C2(C)NC(=O)N(C(C)C(=O)N3CCCC3)C2=O)cc1 (stereo not given) | 5.4 | 2.3
O=c1c2c3nc4ccccc4nc3n(C3CCCC3)c2ncn1CC1CCCO1 (stereo not given) | 0.3 | -1.4
CCN(C(=O)C1=NN(c2ccccc2)C(C(N)=O)C1)c1ccccc1 (stereo not given) | 2.2 | 1.4
Cc1cccc(-n2nnc(C(=O)Nc3ccc4oc(=O)ccc4c3)c2C)c1 | -1.0 | -4.9
O=C(NC1CCCCC1)N(Cc1ccccc1)[C@@H]1C[C@@H]2CO[C@H](c3ccccc3)C[C@@H]2C1 | 24.5 | 30.6
Cc1ccc(C2(CN3CCC(n4nc(C)cc4C)C3)CCNCC2)nc1 (stereo not given) | 8.9 | 7.2
COc1ccc(CCN(C)C(=O)/C=C/c2cn(S(=O)(=O)c3ccc(C)cc3)c3ccccc23)cc1OC | -4.1 | -15.5
O=C(CN1CCN(C(=O)c2ccc3ccccc3n2)CC1)NC1CC1 | 8.4 | 3.1
COc1ccc2nc(N(Cc3ccccc3)C(=O)CCS(=O)(=O)c3ccc(F)cc3)sc2c1 | 0.6 | -4.1
CC1c2ccsc2CCN1Cc1nc2cc(Cl)ccc2c(=O)[nH]1 (stereo not given) | 10.5 | 2.7
Cc1ccc(C(=O)N2CCCC(OCc3cccc([N+](=O)[O-])c3)C2)cc1 (stereo not given) | -1.9 | -0.5
CC(c1cccs1)N(C)C(=O)c1cc(Cc2ccccc2)no1 (stereo not given) | 5.1 | 4.5
CC(NC(=O)CCN1CCOC1=O)(c1ccccc1)c1ccccc1 | 24.0 | 15.6
c1ccc(-c2cc(CN3CCN(c4ncnc5ccccc45)CC3)on2)cc1 | 0.4 | 8.5
COc1ccc(C)cc1NS(=O)(=O)/C=C/c1ccc(Cl)cc1 | -1.2 | -1.3
O=C1CN(NC(=O)C2CC2c2ccc(F)cc2)C(=O)N1 (stereo not given) | 14.0 | 11.1
Cc1ccccc1CO[C@]1(C(=O)NCc2ccco2)CC(OCc2ccccc2C#N)[C@@H]2OC(C)(C)O[C@@H]2C1 (stereo not given in full) | 15.2 | 19.5
O=C(Nc1sc2c(c1C(=O)N1CCOCC1)CCCC2)c1ccccc1 | -4.1 | -1.9
Cc1nnc(SCc2nc(C(=O)N3CCN(Cc4ccccc4)CC3)cs2)n1-c1cccc(Cl)c1 | -13.0 | -16.1
O=C(CCl)Nc1cc2c(cc1Br)OCCO2 | 6.0 | 0.3
Cc1ccc(-c2ccc(OCCNS(=O)(=O)c3ccc(I)cc3)nn2)cc1 | -7.4 | -9.7
O=S1(=O)CCC(n2nc(-c3ccccc3)cc2NS(=O)(=O)c2cnc[nH]2)C1 (stereo not given) | 0.4 | -0.7
Cc1nc(-c2cccnc2)ncc1C(=O)N1CCOC(C(F)(F)F)C1 (stereo not given) | 4.6 | 3.0
CCc1nc2n(n1)C(=O)C(C(c1ccccc1F)N1CCCC(C)C1)S2 (stereo not given) | -1.2 | 16.1
CCOCCCCNC(=O)Nc1ccc(N(C)C)cc1 | 23.9 | 20.4
O=C1CC(C(F)(F)F)N(C(=O)COC(=O)c2cccc(OCC3CCCO3)c2)c2ccccc2N1 (stereo not given) | 0.5 | 13.7
COc1ccc(-c2cc(-c3ccccc3)nc(SCC(=O)C3CC3)c2C#N)cc1 | -3.5 | -7.2
O=C(c1ccc([N+](=O)[O-])cc1)N1CCCc2ccccc21 | 3.9 | -0.9
CC1=NC(N2CCC(C)CC2)NC(=O)C1 (stereo not given) | -4.2 | -8.6
CCOC(=O)C1=C(C)N=c2s/c(=C/c3ccc(Cl)cc3)c(=O)n2C1c1ccc(C)cc1 (stereo not given) | -1.6 | -7.5
O=C(Cn1nc(-c2ccc(Cl)cc2)ccc1=O)Nc1cccc(C(F)(F)F)c1 | 9.6 | 3.4
Cc1[nH]c(=O)[nH]c(=O)c1-c1ccc(C(C)N2CCOCC2)cc1 (stereo not given) | 7.1 | 4.4
COc1ccc(C(=O)N2CCC(N3CCC(C(=O)NC(C)C)CC3)CC2)cc1F | 4.6&8.1 | 1.4&3.3
CC(Sc1nnnn1C1CC1)c1nnc(-c2cccs2)o1 (stereo not given) | 4.6 | 5.4

Four entries from above, with each value named.
> O=C(c1ccc([N+](=O)[O-])cc1)N1CCCc2ccccc21
  NPYLR7 agonist: 3.9 | NPYLR7 agonist max-min: -0.9

> Cc1nc(-c2cccnc2)ncc1C(=O)N1CCOC(C(F)(F)F)C1 (stereo not given)
  NPYLR7 agonist: 4.6 | NPYLR7 agonist max-min: 3.0

> CC(Sc1nnnn1C1CC1)c1nnc(-c2cccs2)o1 (stereo not given)
  NPYLR7 agonist: 4.6 | NPYLR7 agonist max-min: 5.4

> CCc1nc2n(n1)C(=O)C(C(c1ccccc1F)N1CCCC(C)C1)S2 (stereo not given)
  NPYLR7 agonist: -1.2 | NPYLR7 agonist max-min: 16.1

Next part:
Compound | NPYLR7 agonist | NPYLR7 agonist max-min
Cc1ccccc1C(c1ncccc1C)N(C)C(=O)C1CCN(CCCN(C)S(C)(=O)=O)CC1 (stereo not given) | 32.0 | 22.5
O=C(Cc1cn2ccsc2n1)NN=C1C(=O)c2cccc3cccc1c23 | -1.2 | -2.1
CC(NC(=O)c1cccc(S(=O)(=O)N(C)C)c1)c1ccco1 (stereo not given) | -0.3 | -3.1
CCN(CC)P1(=Nc2cccc(C)c2C)C(=C2N(C)c3ccccc3C2(C)C)C=NN1C (stereo not given) | 3.2 | 3.2
COc1ccccc1C1CCCN1C(=O)Cn1nnnc1CN1CCOCC1 (stereo not given) | -2.4 | -6.0
c1cc(-c2ccc(CN3CCC(N4CCSCC4)CC3)o2)[nH]n1 | 1.3 | 1.1
CCCC(=O)OCC(O)CN(CCOC)Cc1ccccc1C (stereo not given) | 11.3 | 16.4
CCC(C)NC(=O)CN1C(=O)CCOc2ccccc21 (stereo not given) | 0.7 | -0.1
Cc1cc(C(=O)NC2CCCN(CCc3ccccc3)C2)nc(C)n1 (stereo not given) | 1.1 | -1.2
Cc1ccc(NC(=Nc2nc(C)cc(C)n2)NC(=O)c2ccccc2)cc1 | -4.4 | -7.8
C=CCN(c1ccccc1)S(=O)(=O)c1cccc(C(=O)Nc2ccnn2C(C)C2CC2)c1 (stereo not given) | 0.8 | 3.2
COc1cc2c(cc1OC)C1CC(=O)C(CC(C)C)CN1CC2 (stereo not given) | -21.1 | -27.5
CN(C)C(=O)c1cccc(OS(=O)(=O)c2ccc(Cl)c(C(F)(F)F)c2)c1 | 3.4 | 5.6
COC(=O)c1ccccc1CSc1nnc(-c2ccccc2C)n1-c1ccccc1 | -3.2 | 6.5
O=C(Nc1cccc(Cl)c1)C(C1CCCC1)N1CCN(C(=O)c2ccc([N+](=O)[O-])cc2)CC1 (stereo not given) | -2.6 | -1.0
CCN(CCCNC(=O)c1cc(C)c(C)s1)c1ccccc1 | -0.9 | -2.1
CC1(C)CC(NC(=O)c2cc(-c3ccccn3)nc3ccccc23)CC(C)(C)N1 | 2.8 | 1.6
CN1CCCn2nc(C(=O)N3CCc4c([nH]c5ccccc45)C3)cc2C1 | -1.6 | -6.3
CN(C(=O)c1ccc(-n2nc(-c3ccc(Cl)cc3)cc2N)cc1)C(c1ccccc1)c1ccccc1 | -5.0 | -8.4
CCC(NC(=O)c1coc(Cn2cnc3ccccc32)n1)c1ccc(F)cc1 (stereo not given) | 6.6 | 1.7
CCC(=O)Nc1ccc(N(C)C)c(CN(CC2CC2)C(=O)c2ccco2)c1 | -4.9 | -0.8
Cc1cc(C)cc(-n2ccnc(SCC(=O)Nc3c(C)cc(C)cc3C)c2=O)c1 | 2.4 | -2.5
CCN(CC)C(=O)Oc1ccc2c(ccn2Cc2cccc(SC(F)(F)F)c2)c1-c1ccc(F)c(F)c1 | -7.1 | -8.2
CC(NC(=O)c1csc(COc2cccc(F)c2)n1)c1ccccc1 (stereo not given) | 20.4 | 19.3
CC(C)(C)NC(=S)N1CCn2cccc2C1c1ccccc1F (stereo not given) | 0.5 | -1.4
COc1ccccc1NC(=O)Nc1ccc(N2CCCC2)c(C(=O)NCc2ccccc2)c1 | 13.4 | 18.0
CCC1CN(C(=O)C2CC2)CCC1NCc1cc(OC)cc(OC)c1 (stereo not given) | -10.2 | -10.7
CCN(C)c1cc(Oc2cc(C)ccc2F)ncn1 | -21.4 | -11.4
O=S(=O)(NC1CCCCCC1)c1ccc2c(c1)OCCO2 | 4.0 | 1.8
CCN(CC)c1ccc(/C=C2\SC(=S)N(CCS(=O)(=O)O)C2=O)cc1 | 137.0* | 201.3*
CCc1nc2ccc(C(=O)NCc3ccc(OC)cc3)cn2c1N(C)CCN1CCOCC1 | 21.4 | 17.8
Clc1ccc(-c2noc(CSc3ccc(Br)cc3)n2)cc1 | 1.6 | 1.9
COc1ccc(C(=O)N2CCSC2c2ccccc2F)c(OC)c1 (stereo not given) | -5.3 | -2.9
CCOc1ccc(C(C)NC(=O)NCC(O)c2cccs2)cc1 (stereo not given) | 1.8 | 9.2
COc1ccc(C=NNC(=O)Cc2cccn2C)cc1 | -0.1 | -4.0
COc1cccc(CN2CCCn3cccc3C2c2ccccc2C(F)(F)F)c1O (stereo not given) | 26.4 | 28.2
Cc1cccc(CN2CCN(Cc3ccc4cccc(F)c4n3)CC2)c1 | 0.9 | 0.5
CCCCN(C(=O)CN1C(=O)c2ccccc2C1=O)C1=NCCS1 | 11.4 | 8.6
COCCOCC(=O)N1CCCn2nc(-c3nc4ccccc4n3C)cc2C1 | 5.3 | 4.1
N#Cc1ccc(-c2csc(NC(=O)c3cc([N+](=O)[O-])ccc3Cl)n2)cc1 | -7.8 | -13.0
O=C(C1CCC(=O)N1C1CCCC1)N1CCOCC1 (stereo not given) | 7.8 | 3.4
Cc1noc2nc(C3CC3)cc(C(=O)N3[C@@H]4CC[C@H]3CN(C)C(=O)C4)c12 | 3.9 | 2.8
CCOC(=O)CN(C)c1c([N+](=O)[O-])c(=O)n(C)c(=O)n1C | 27.0 | 18.4
CCOC(=O)C1=C(C)NC2=C(C(=O)CCC2)C1c1ccc(OC)c(OC)c1 (stereo not given) | 2.7 | -3.5
CCOc1ccc2oc(C)c(C(=O)N3CCN4C(=O)CNC(=O)C4C3)c2c1 (stereo not given) | 12.9 | 11.3
COc1cccc(N2CC(NC(=O)Cc3nonc3C)CC2=O)c1 (stereo not given) | 3.7 | -0.6
COc1ccc(C2=Nc3ncnn3C(c3ccccc3)C2)cc1 (stereo not given) | 4.9 | 3.7
CCCCCn1c(=O)c2c(nc3n2CCCN3Cc2ccccc2)n(C)c1=O | 1.1 | -2.5
CC(CC(N)=O)Nc1ccc(F)cc1S(=O)(=O)C(F)(F)F (stereo not given) | -7.0 | -7.3
C=Cc1cccc(CN(Cc2cnn(C)c2)C2CC2)c1 | 12.1 | 11.0
O=C(CCN1CCN(C(=O)CN2CCOCC2)CC1)NCc1ccccc1Cl | 0.8 | -0.5
Cc1cnn(CC2CN(Cc3cccc(C(=O)N(C)C)c3)CCO2)c1 (stereo not given) | 0.9 | 24.1
CCC1CN(C(=O)c2ccc(NCc3ncccc3C)nc2)CCN1C(C)C (stereo not given) | 4.1 | 1.1
COc1ccc(N=Cc2c(O)n(Cc3ccccc3)c(=O)[nH]c2=O)cc1 | 11.1 | 10.2
COc1ccccc1Cn1c(SC)nc2c(-c3ccccc3)c[nH]c2c1=O | -2.3 | -5.1
CN(C)CC1(O)CCN(C(=O)c2cccc3cc[nH]c23)C1 (stereo not given) | 16.6 | 12.4
CC1CCCC(NS(=O)(=O)CCn2nnc3ccccc32)C1 (stereo not given) | 3.3 | 4.1
O=C1c2ccccc2C(=O)N1CNc1ccc(-c2ccc([N+](=O)[O-])cc2)cc1 | -0.9 | -6.3
CCCCNC(=O)N1CCn2nc(C(=O)N3CCCC3)cc2C1 | 6.9 | 1.9
